# Screens as filed in PubChem.
# Cruzain inh noDet: cruzain (T. cruzi) inhibition without detergent; P25779; purified cruzain, Z-FR-AMC fluorescence, no detergent; Potency, µM, for the others: max response, negative = inhibition, actives largely listed as inhibitors; 200,000 compounds, 2.3% hits; AID 1476;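 also: plate controls were enzyme without inhibitor for no effect and buffer without enzyme for full effect; nearly all actives have a fitted effect of over 40% in size; top concentration of the series not given in the record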
# Target sequence (P25779 123-467 limits assumed): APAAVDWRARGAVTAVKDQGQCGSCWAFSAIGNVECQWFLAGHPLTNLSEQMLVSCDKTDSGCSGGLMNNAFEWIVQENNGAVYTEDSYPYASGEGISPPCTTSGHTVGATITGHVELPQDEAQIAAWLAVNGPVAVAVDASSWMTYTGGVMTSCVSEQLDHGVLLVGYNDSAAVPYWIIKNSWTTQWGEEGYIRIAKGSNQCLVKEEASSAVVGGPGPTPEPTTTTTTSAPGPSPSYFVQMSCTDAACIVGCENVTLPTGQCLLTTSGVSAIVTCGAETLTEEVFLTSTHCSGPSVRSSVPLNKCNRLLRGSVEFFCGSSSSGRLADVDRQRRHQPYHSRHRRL
#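 Purified cruzain at 1.5 nM, pre-incubated 15 min with compound at room temperature in 100 mM sodium acetate pH 5.5, 5 mM DTT, 0.00005% Triton X-100. Reaction started with 2 uM Z-FR-AMC; AMC fluorescence increase over 60 s gives rate.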
# RE007 growth inh: less growth of the S. pombe RE007 Vpr strain | S. pombe RE007 Vpr strain, BacTiter-Glo ATP luminescence, 24 h; control for the full effect not named in the record | Potency, µM (highest dose often 92.2 µM), inactives show at the highest dose activity change, negative = less growth | 360,000 compounds, 0.21% hits; active = well fitted falling curve with a large enough effect; inconclusive = small, poorly fitted or top-dose-only effect; inactive = no such curve, though single readings can be large or run the other way;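 also: % is scaled to controls: 0 for no effect and ±100 for the full control effect; nearly all actives have a fitted effect of over 50% in size; the assay follows cell death caused by Vpr and the record does not say whether a fall means rescue or toxicity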
#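 Fission yeast strain RE007, carrying one chromosomally integrated HIV-1 vpr copy, was seeded at OD 0.01 in PMG+AL medium with 23 nL pinned compound. After 24 h at 30 °C and 99% humidity, viability was read by BacTiter-Glo luminescence.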
# 2A StopGo: FMDV 2A StopGo reporter, luciferase signal. human cells with a luciferase reporter of 2A StopGo recoding; control for the full effect not named in the record. 410,000 compounds, 1.2% hits. AID 1159524. Potency, µM (highest dose often 57.9 µM), for inactives: at the top dose signal change, negative = less light; active = well fitted falling curve with a large enough effect; inconclusive = small, poorly fitted or top-dose-only effect; inactive = no such curve, though single readings can be large or run the other way; tested in HEK293T cells; also: % is scaled to controls: 0 for no effect and ±100 for the full control effect; nearly all actives have a fitted effect of over 45% in size; luciferase light after 4 h
# Lassa entry inh: inhibitors of Lassa virus binding or cell entry; 300,000 compounds, 1.2% hits; Lassa virus pseudotype entry inhibition, cell reporter; control for the full effect not named in the record; Potency, µM (highest dose often 37.9 µM), inactives show top-dose activity change, negative = inhibition, actives largely listed as inhibitors; active means well fitted inhibition curve with a large enough effect; inconclusive means small, poorly fitted or top-dose-only effect, or effect the other way; inactive means flat fitted curve, though single readings scatter; tested in HEK293 cells; also: % is scaled to controls: 0 for no effect and ±100 for the full control effect; nearly all actives have a fitted effect of over 50% in size; luciferase read-out
# NS1 inh: influenza NS1 inhibition. S. cerevisiae slowed by influenza A NS1, growth recovery by OD600. Potency, µM (top dose mostly 46.1 µM), for the others: at the top dose activity, positive = more growth. 270,000 compounds, 0.4% hits; active means well fitted rising curve with a large enough effect; inconclusive means small, poorly fitted or top-dose-only effect; inactive means no such curve, though single readings can be large or run the other way; also: nearly all actives have a fitted effect of over 50% in size
#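 OD600 was taken as the measure of yeast growth restored by compound in an NS1-expressing S. cerevisiae strain. Cells had been washed out of glucose medium and diluted 1:100 into galactose -URA medium, pH 6.0.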
# Cruzain inh Det: cruzain (T. cruzi) inhibition with detergent. AID 1478. P25779. Potency, µM, for inactives: max response, negative = inhibition, hits mostly inhibitors. 200,000 compounds, 0.43% hits. purified cruzain, Z-FR-AMC fluorescence, 0.01% Triton;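 also: plate controls were neutral wells for no effect and buffer without enzyme for full effect; nearly all actives have a fitted effect of over 40% in size; top concentration of the series not given in the record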
#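 Purified cruzain (1.5 nM final) was preincubated with compounds for 15 min at room temperature in 100 mM sodium acetate pH 5.5, 5 mM DTT, 0.01% Triton X-100. Reaction started with 2 uM Z-FR-AMC; AMC fluorescence change over 60 s gave activity.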
# SARS PLpro yeast: SARS-CoV PLP inhibition in yeast; S. cerevisiae expressing SARS-CoV PLpro, growth rescue; control for the full effect not named in the record; Potency, µM (titrated, usually from 32.9 µM), for inactives: top-dose activity, positive = growth rescue; 330,000 compounds, 0.19% hits; active means well fitted rising curve with a large enough effect; inconclusive means small, poorly fitted or top-dose-only effect; inactive means no such curve, though single readings can be large or run the other way; also: 0% is about no effect; nearly all actives have a fitted effect of over 55% in size; growth read by luminescence after 48 h
# Marburg entry inh: Marburg virus entry inhibition; Marburg virus pseudotyped entry inhibition, cell reporter; control for the full effect not named in the record; about a third of the inactives were read at about 46 µM; Potency, µM (highest dose often 37.8 µM), without a hit: at the highest dose activity change, negative = inhibition, usual class: inhibitors; 300,000 compounds, 1.8% hits; AID 540276; active = well fitted inhibition curve with a large enough effect; inconclusive = small, poorly fitted or top-dose-only effect, or effect the other way; inactive = flat fitted curve, though single readings scatter; tested in HEK293 cells; about a fifth of its hits are not listed in these tables; also: % is scaled to controls: 0 for no effect and ±100 for the full control effect; luciferase read-out
# * hit, by the source's call; ? = inconclusive; / = not tested or not shown; & = joins results of further samples; [ ] = dose if it differs, or a comment. Unless noted, calls follow the shape of the dose curve; as a rule, active = well fitted curve in the direction sought with a large enough effect; inconclusive = small, poorly fitted or top-dose-only effect, or another doubt; inactive = no such curve, though single readings can be large; an effect the other way counts as inactive or inconclusive. Potency is read from the fitted curve at half-maximal effect. Random draw from the library. Share with any hit: about 4.6%.
SMILES | Cruzain inh noDet | RE007 growth inh | 2A StopGo | Lassa entry inh | NS1 inh | Cruzain inh Det | SARS PLpro yeast | Marburg entry inh
Cc1ccc2c(CN3CCN(CCO)CC3)cc(=O)oc2c1C | -10% | -1% | 0% | -8% | -1% | -0.6% | -16% | ?
CCN(CC)CCCNC(=O)CSc1nc(-c2ccc(F)cc2)cc(C(F)(F)F)n1 | / | -2% | -18% | -20% | 3% | / | -2% | ?
COc1ccc(C(=O)O)cc1NC(=S)NC(=O)Cc1ccc(Cl)cc1 | / | 16% | -23% | / | 5% | / | -1% | -4%
COc1cccc(CC2(CO)CCN(S(=O)(=O)c3ccc(OC)cc3OC)CC2)c1 | / | 14% | -10% | -28%[46.1 µM] | -7% | / | 1% | ?
COCc1ccc(C(=O)Nc2ccccc2C(=O)NCc2cccnc2)cc1 | / | -4% | 32%[activator] | / | 8% | / | 9% | -4%[46.1 µM]
O=C(NCc1cnc2ccccn12)C1CCC(=O)N(Cc2cccc(F)c2)C1 (stereo not given) | / | -17% | -16% | -13% | 2% | / | ? | -7%
CCN(CC)CCn1c(NCc2cc(OC)ccc2OC)nc2ccccc21 | -6% | -16% | -14% | 14% | -11% | -1.6% | -16% | ?
Cc1onc(-c2ccccc2)c1-c1nc2ccccc2c(=O)o1 | 1% | 2% | -20% | 12% | -17% | -0.3% | -15% | ?
CC(Nc1ccc(Cl)c(Cl)c1)C(=O)NN (stereo not given) | / | 8% | -9% | 0% | 2% | / | 0% | 3%
O=C(c1cccc(OC2CCN(Cc3ccc(F)cc3)CC2)c1)N1CCCC1 | / | -4% | -26% | / | 0% | / | -5% | /
COc1ccc(C(=O)COC(=O)Cn2cnc3c2c(=O)n(C)c(=O)n3C)c(OC)c1 | / | 12% | 4% | / | -12% | / | -10% | /
COc1cccc(NC(=O)Cn2c(=O)n(-c3cccc(OC)c3)c(=O)c3c4c(sc32)CCCC4)c1 | -2% | / | -16% | 18%[46.1 µM] | / | -0.6% | / | ?
CSc1cc(-c2ccccc2)n(C)c(=O)c1C#N | / | -11% | -28% | -9%[46.1 µM] | / | / | 0% | 4%[46.1 µM]
COc1ccc(/C=N\N=C2/SC(CC(=O)O)C(=O)N2c2ccc(O)cc2)cc1 (stereo not given) | 0% | 3% | / | -1% | 2% | -2.8% | 6% | 2%
Cn1c(SCC#N)nc2ccccc2c1=O | / | 0% | -16% | / | -4% | / | -1% | /
O=C(O)c1ccc(N/N=C/C2=Cc3ccccc3OC2)cc1 | / | -9% | 13% | / | -51% | / | -2% | /
Cn1cccc1C(=O)OCC(=O)Nc1sccc1C#N | / | 12% | -8% | ? | / | / | -3% | 0%
Fc1ccc(CSc2nc3ccccc3[nH]2)cc1 | -8% | ? | / | 0% | -62% | 0.1% | -18% | -34%
COc1ccc(-c2c(C#N)c(SCC(=O)c3cc4ccccc4oc3=O)nc(C)c2C(=O)Nc2ccccc2)cc1 | ? | 23% | -23% | ? | 10% | -1.1% | -10% | ?
Cc1ccc(Cn2c(C)nc3ccc([N+](=O)[O-])cc3c2=O)cc1 | / | -14% | ? | / | -8% | / | 1% | /
COC(=O)c1ccc(N2CCN(C)CC2)c(NC(=O)c2ccc(-c3ccc(Cl)cc3)o2)c1 | / | -4% | -18% | 0% | 2% | / | 1% | 20%
O=S(=O)(Nc1ccc(N2CCOCC2)cc1)c1ccc(Cl)s1 | -1% | -7% | -11% | 1% | 7% | -3.4% | -4% | -4%
COC(=O)c1ccc2c(=O)n(C3CCCCC3)c(SCC#N)nc2c1 | 4% | 8% | -6% | ? | -37% | -3.2% | 18% | 0.015µM*
Cc1ccc(S(=O)(=O)CCC(=O)N(C)C2CCCCC2)cc1 | / | -6% | 18% | -2% | -1% | / | -4% | 17%
Cc1ccc(C(=O)OCC(=O)N2CC(=O)Nc3ccccc32)s1 | -3% | -2% | 9% | -15% | -1% | 0.0% | 3% | -12%[46.1 µM]

# Fetched by structure from the list above:
SMILES | Cruzain inh noDet | RE007 growth inh | 2A StopGo | Lassa entry inh | NS1 inh | Cruzain inh Det | SARS PLpro yeast | Marburg entry inh
Cc1ccc(Cn2c(C)nc3ccc([N+](=O)[O-])cc3c2=O)cc1 | / | -14% | ? | / | -8% | / | 1% | /
COc1cccc(CC2(CO)CCN(S(=O)(=O)c3ccc(OC)cc3OC)CC2)c1 | / | 14% | -10% | -28%[46.1 µM] | -7% | / | 1% | ?

# (more compounds)
SMILES | Cruzain inh noDet | RE007 growth inh | 2A StopGo | Lassa entry inh | NS1 inh | Cruzain inh Det | SARS PLpro yeast | Marburg entry inh
CCn1c(Cn2nnc(-c3ccccc3)n2)nnc1SCC(=O)Nc1cccc(C)c1C | ? | -10% | -20% | -8% | -15% | -2.5% | -1% | 3%&-3%
CN(C)S(=O)(=O)c1ccc(C(=O)NCC(=O)N/N=C/c2ccccc2)cc1 | / | 13% | -15% | -6%[46.1 µM] | / | / | 1% | -3%[46.1 µM]
COc1cccc(CNS(=O)(=O)c2ccc3c(c2)N(C(C)=O)CCO3)c1 | / | 9% | 18% | / | 3% | / | 17% | /
Cn1cc(Br)c(C(=O)N2CCCCCC2)n1 | / | -2% | 6% | / | 6% | / | 3% | /
CCOC(=O)C1(CCOc2ccccc2)CCN(C2Cc3ccccc3C2)CC1 | / | 3% | ? | / | -5% | / | -1% | -22%[46.1 µM]
CCC(C)[C@@H](C(=O)Nc1ccc2c(c1)OCO2)N1Cc2ccccc2C1=O (stereo not given in full) | ? | 5% | -12% | / | -24% | -4.6% | 1% | /
COC(=O)C(NC(C)=O)(Nc1sc2c(c1C(N)=O)CCCC2)C(F)(F)F (stereo not given) | -6% | 3% | / | 2% | -2% | -1.1% | -5% | 11%
O=C(CN1CCN(Cc2ccccc2)CC1)Nc1ccc(Br)cc1 | / | -29% | -14% | / | -5% | / | 0% | /
COC(=O)c1c(NC(=O)COc2ccc(C)cc2Br)sc2c1CCCC2 | 6% | / | -12% | 25%[46.1 µM] | / | -0.4% | / | 18%[46.1 µM]
O=C(C1CCN(S(=O)(=O)c2cccc3nonc23)CC1)N1CCN(c2ccccc2)CC1 | 22% | / | -8% | 14%[46.1 µM] | / | -6.9% | / | -4%[46.1 µM]
Cc1ccc(C(=O)ON=C2CCN(S(=O)(=O)c3ccccc3)CC2)cc1 | 4% | 19% | 5% | 16% | -10% | 1.5% | -10% | -5%
CCCN(CCC)CCCNC(=O)c1ccc2c(c1)N(CC)C(=O)c1ccccc1S2=O (stereo not given) | 1% | -5% | -12% | 1% | 0% | 5.6% | 0% | ?
CCCCNC(=O)CN(CCc1ccccc1)S(C)(=O)=O | -2% | 1% | 10% | 14% | 4% | -3.2% | -2% | 7%
Cc1ccc(-c2nc(CS(=O)CC(=O)N3CCN(c4ccc(F)cc4)CC3)c(C)o2)cc1 (stereo not given) | ? | 2% | ? | ? | 17% | -10% | 8% | ?
O=C(NC1(C(F)(F)F)C(=O)Nc2c1c(=O)[nH]c(=O)n2CCc1ccccc1)c1ccc(Cl)cc1Cl (stereo not given) | -7% | / | -20% | 19%[46.1 µM] | / | -1.5% | / | ?
Cc1ccc(C)c(CSc2nnc(-c3ccccn3)n2N)c1 | 3% | 0% | 16% | -2% | -94% | -1.7% | 5% | 0%
CC1CC(Nc2ccccc2)c2ccccc2N1C(=O)c1cccnc1 (stereo not given) | 4% | 2% | / | -29% | -3% | 0.4% | 5% | ?
CN(Cc1nccn1C)C(=O)c1ccc2nc(Cc3ccccc3F)oc2c1 | / | -1% | 42%[activator] | 12%[46.1 µM] | 2% | / | 2% | ?
CCCCN(Cc1cc2cc(OC)ccc2[nH]c1=O)C(=O)c1ccco1 | -24% | -7% | 0% | -1% | -6% | -18% | -4% | -28%
CC(=O)NCCn1c(SCC(=O)NCCC(C)C)nc2ccccc2c1=O | 1% | -3% | -14% | -1% | 0% | 3.8% | 4% | ?
CCn1c(=NC(=O)CS(=O)(=O)c2ccc(F)cc2)sc2cccc(OC)c21 | / | 2% | ? | -36% | / | / | / | ?
Cc1cccc(C)c1N1CCN(S(=O)(=O)N2CCOCC2)CC1 | 0% | -6% | ? | -2% | 8% | 2.8% | -6% | 14%
COc1ccc(Sc2nc(-c3ccccn3)ncc2OC)cc1 | / | ? | -21% | 21µM* | / | / | -7% | 16µM*
CCOc1cccc2sc(N(Cc3cccnc3)C(=O)c3ccc(C#N)cc3)nc12 | ? | / | -14% | 1%[46.1 µM] | / | -6.9% | / | /
CC(C)Oc1ncnc2c1[nH]c1ccccc12 | / | -18% | ? | / | -33% | / | -4% | /
OC1(c2ccc(F)cc2)CCN(Cc2nnnn2Cc2cccs2)CC1 | -3% | -3% | -17% | -7% | 0% | 2.5% | -7% | -16%
COCC(=O)N1CCC(Oc2ccc(C(=O)N3C[C@H]4CC[C@H]3C4)cc2)CC1 | / | 4% | 5% | 3% | 5% | / | 19% | -1%
CN(C)c1ccc2c(c1)C(=NO)c1ccccc1-2 | / | -26% | 47%[activator] | -3% | / | / | / | -10%
Nc1ccc(C(=O)NC2CCSc3ccccc32)cc1[N+](=O)[O-] (stereo not given) | / | 0% | 18% | 24%[46.1 µM] | -96% | / | -9% | 1%[46.1 µM]
CCCCNC(=S)N(CCN(CC)CC)Cc1cc2cc3c(cc2[nH]c1=O)OCO3 | / | -5% | 1% | / | 6% | / | 2% | /
COCCNC(=O)c1cc(S(=O)(=O)N2CCCCC2)ccc1N1CCOCC1 | / | 22% | -12% | 13% | / | / | -1% | 13%
COc1ccc(N(C)C(=O)C2CCN(S(=O)(=O)c3cccc4nonc34)CC2)c(OC)c1 | / | -3% | -25% | ? | -5% | / | -2% | ?
O=C(Nc1nnc(C2=COCCO2)o1)c1ccc([N+](=O)[O-])cc1 | / | 6% | 10% | -20% | 2% | / | 2% | -11%
COc1ccc(Cn2ccc3nc(C)c(C(=O)Nc4ccc(F)cc4)cc3c2=O)cc1 | ? | / | -7% | ? | / | -4.3% | / | /
O=C(O)c1ccc(CSc2nnc(SCc3ccccc3)s2)cc1 | ? | -24% | 5% | 2% | -50% | 2.8% | -2% | 3%
